Source: PubChem
BJeLR lethal = kills HRASV12-expressing BJeLR cells. BJeLR (HRASV12) viability, CellTiter-Glo ATP luminescence, 48 h; reference of the scale not given here. inhibition, % (test concentration not listed). 300,000 tested, 0.17% active. AID 1554;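 active = replicate mean above 50%; inconclusive = above 50% but judged a plate artefact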;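 also: 50 nL library stock added to about 25 µL; numbers are from one replicate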
Bead autofluor = compound fluorescence in toxin protease inhibitor counterscreen; 360,000 tested, 3.1% active; AID 624483; compound autofluorescence counterscreen, microsphere flow cytometry; stronger effect = higher value; fluorescence intensity (test concentration not listed);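 active = at least 3 SD above the mean of all compounds, about 16000 in these data; inconclusive = too few beads counted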;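 also: 100 nL of 1 mM stock went into each well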
Sa ugtP lethal = kills S. aureus RN4220 lacking UgtP; S. aureus RN4220 ugtP deletion, OD600 growth, 16 h; some inactives read as strong as hits; growth inhibition, % (test concentration not listed); 330,000 tested, 0.54% active; AID 1259309;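 active = z-score under -3 and OD600 up to 0.15 on both plates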;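 also: plate controls were untreated wells for no effect and antibiotic for full effect; wells of about 80 µL received 100 nL stock; the first replicate is given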
PrP 5UTR inh = suppresses PrP 5' UTR mRNA reporter expression; cell-based PrP 5' UTR mRNA reporter, plate reader; inhibition, % (concentration not given with the values); 340,000 tested, 0.35% active; AID 488862;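 active = every replicate at 50% or more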;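 also: 0 = median of the neutral control wells; tested in H4 reporter cells; numbers are from one replicate; inactives centre near -14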
Mtb hypoxia inh = reduces hypoxia-regulated biosensor signal in M. tuberculosis; M. tuberculosis hypoxia-regulated fluorescent reporter, fluorescence; fluorescence inhibition, % (concentration not given with the values); 300,000 tested, 0.1% active;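 active = 35 to 45% if threefold the growth effect, above 45% if 1.5-fold the growth effect; inactive = the rest, general growth blockers included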;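 also: wells of about 50 µL received 100 nL stock; 0% = vehicle wells and 100% = reference inhibitor wells; whole bacteria with a GFP reporter of the hypoxia response; strong numbers were not always called active; many hits fall short of the cut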
RN4220 kill = kills Staphylococcus aureus RN4220; inhibition, % (concentration not given with the values); AID 1259311; S. aureus RN4220 growth, OD600, 16 h; 330,000 tested, 0.33% active;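 active = z-score of -3 or lower and OD600 up to 0.18 on both plates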;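 also: plate controls were untreated cells for no effect and reference antibiotic for full effect; stock transfer was 100 nL into about 80 µL; one replicate is shown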
Mtb hypoxia inh growth = second read-out of Mtb hypoxia inh, no call of its own (marks repeat the call); growth inhibition, %; measured here: M. tuberculosis growth (absorbance);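 0% = vehicle and 100% = reference antibiotic; read after six days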
* = called active by the depositor; & = joins results of further samples. Rows were taken by chance; 4% or so of the library scored in one or more.

Results for COc1ccc(N(CC(=O)N2CCN(c3ccccc3)CC2)S(=O)(=O)c2ccc(C)cc2)cc1 ?
BJeLR lethal: 1.2; Bead autofluor: 5183; Sa ugtP lethal: 0.7; PrP 5UTR inh: -15.9; Mtb hypoxia inh: 0.2; RN4220 kill: 3.3; Mtb hypoxia inh growth: -4.1

What do the screens show for `CC12CCC(=O)N1C(C(=O)Nc1cccc(S(=O)(=O)N3CCCCCC3)c1)CS2` (configuration not stated)?
BJeLR lethal: -5.9; Bead autofluor: inconclusive; Sa ugtP lethal: 2.4; PrP 5UTR inh: -4.4; Mtb hypoxia inh: -6.6; RN4220 kill: 2.5; Mtb hypoxia inh growth: -8.4

Results for O=C(NCc1ccccc1)c1ccc(CS(=O)(=O)c2ccc(Br)cc2)o1 ?
BJeLR lethal: 3.5; Bead autofluor: 5832; Sa ugtP lethal: 10.9; PrP 5UTR inh: -16.6; Mtb hypoxia inh: 7.6; RN4220 kill: 3.4; Mtb hypoxia inh growth: 1.5

What do the screens show for `COCCN(C(=O)COC(=O)c1cccs1)c1c(N)n(Cc2ccccc2)c(=O)[nH]c1=O`?
BJeLR lethal: 4.8; Bead autofluor: inconclusive; Sa ugtP lethal: 4.5; PrP 5UTR inh: -19.3; Mtb hypoxia inh: -2.3; RN4220 kill: 0.2; Mtb hypoxia inh growth: 2.9

Results for COC(C(=O)Nc1ccnn1C1CCN(Cc2ccc(CO)o2)CC1)c1ccccc1 (configuration not stated) ?
BJeLR lethal: -3.6; Bead autofluor: 5458; Sa ugtP lethal: 2.3; PrP 5UTR inh: -13.0; Mtb hypoxia inh: 6.0; RN4220 kill: 1.5; Mtb hypoxia inh growth: 4.9

Results for Clc1ccc(/C=N/Nc2ncnc3nc[nH]c23)cc1 ?
BJeLR lethal: -5.6; Bead autofluor: 5397; PrP 5UTR inh: -23.4

Results for O=C(O)c1nc(N2CCCCC2)ncc1Cl ?
BJeLR lethal: 7.9; Bead autofluor: 2505; Sa ugtP lethal: 5.8; PrP 5UTR inh: -10.7; RN4220 kill: 3.2

Results for Clc1ccc(CNc2ccc(CNc3ncn[nH]3)cc2)cc1 ?
BJeLR lethal: 1.0; Bead autofluor: 9836; Sa ugtP lethal: 5.3; PrP 5UTR inh: -14.1; Mtb hypoxia inh: -2.9; RN4220 kill: 4.8; Mtb hypoxia inh growth: 1.0

How did COc1ccc(NC(=O)N(C)C[C@H]2Oc3ccc(NS(=O)(=O)c4c(C)noc4C)cc3C(=O)N([C@H](C)CO)C[C@@H]2C)cc1 do in these assays?
Bead autofluor: 4143; Sa ugtP lethal: -7.9; PrP 5UTR inh: -22.9; Mtb hypoxia inh: 3.4; RN4220 kill: -12.0; Mtb hypoxia inh growth: 14.6

How did CN(C)CCNC(=O)C(=NO)c1ccccn1 do in these assays?
Sa ugtP lethal: 8.4; Mtb hypoxia inh: 0.9; RN4220 kill: -0.4; Mtb hypoxia inh growth: 4.1

Results for COc1ccc(C(=O)Cn2c(C)nc([N+](=O)[O-])c2Br)cc1 ?
BJeLR lethal: -1.9; Bead autofluor: 3643; Sa ugtP lethal: 6.6; PrP 5UTR inh: -15.1; Mtb hypoxia inh: 11.3; RN4220 kill: 1.3; Mtb hypoxia inh growth: 10.2

How did O=C1c2ccccc2C(=O)N1Cc1ccccc1F do in these assays?
BJeLR lethal: 5.5; Bead autofluor: 3712; Sa ugtP lethal: 6.6; PrP 5UTR inh: -23.6; Mtb hypoxia inh: 9.8; RN4220 kill: 4.1; Mtb hypoxia inh growth: 1.1

Results for C#CCOCCOCCOCCNc1nc(N2CCN(C(=O)[C@H](CCCCN)n3cc([C@@H](N)CC(C)C)nn3)CC2)nc(N2CCN(C(=O)[C@H](CCCCN)n3cc([C@@H](N)CC(C)C)nn3)CC2)n1 ?
BJeLR lethal: -0.8; Bead autofluor: 7479; PrP 5UTR inh: -21.8

What do the screens show for `CCC(Oc1ccccc1)C(=O)N1CC(C)CC(C)C1` (configuration not stated)?
BJeLR lethal: 2.3; Bead autofluor: 9375; Sa ugtP lethal: -1.6; PrP 5UTR inh: -15.0; Mtb hypoxia inh: 10.0; RN4220 kill: 6.4; Mtb hypoxia inh growth: 5.5

How did CCOC(=O)C1(Cc2cccc(Cl)c2)CCCN(C(=O)c2cccnc2)C1 (configuration not stated) do in these assays?
BJeLR lethal: -3.8; Bead autofluor: 4608; Sa ugtP lethal: 10.4; PrP 5UTR inh: -30.7; Mtb hypoxia inh: -2.1; RN4220 kill: 8.6; Mtb hypoxia inh growth: 11.9

What do the screens show for `CCC(=O)Nc1ccc(S(=O)(=O)Nc2ccc(Cl)nn2)cc1`?
BJeLR lethal: -6.9; Bead autofluor: 2474; Sa ugtP lethal: 4.8; PrP 5UTR inh: 5.6; Mtb hypoxia inh: 0.3; RN4220 kill: 0.4; Mtb hypoxia inh growth: 1.8

What do the screens show for `COC(CC1OC1C(=O)COCc1ccccc1)OC` (configuration not stated)?
Sa ugtP lethal: 9.1&-4.0&0.1&-10.6; Mtb hypoxia inh: 8.9&1.9&13.3&-4.1; RN4220 kill: 8.0&5.0&3.3&1.2; Mtb hypoxia inh growth: 2.6&2.7&9.0&5.4

What do the screens show for `COc1ccc(-c2ccc([C@H]3[C@@H]4C=CCC[C@@]4(C)C(=O)N3Cc3ccccc3)c(F)c2)cc1OC`?
BJeLR lethal: 11.3; Bead autofluor: 3270; PrP 5UTR inh: -13.4

How did Cc1ccc(C(=O)CN2C(=O)C(=O)N(Cc3ccccc3)C2=O)cc1 do in these assays?
BJeLR lethal: 2.4; Bead autofluor: 4579; Sa ugtP lethal: -1.0; PrP 5UTR inh: -17.0; Mtb hypoxia inh: 11.0; RN4220 kill: 4.8; Mtb hypoxia inh growth: -5.4

What do the screens show for `COc1cc(-n2c(C)nc3cc(C(=O)NCc4ccco4)ccc32)cc(OC)c1OC`?
BJeLR lethal: -4.5; Bead autofluor: 2807; Sa ugtP lethal: 4.3; PrP 5UTR inh: -24.2; RN4220 kill: -1.6

What do the screens show for `CCCCCCC1CC(CSc2ncn[nH]2)OC1=O` (configuration not stated)?
BJeLR lethal: 2.8; Bead autofluor: 2158; Sa ugtP lethal: 1.3; PrP 5UTR inh: -22.4; RN4220 kill: -2.8

How did Cc1nc(SCC(=O)N2CCOCC2)c2c(=O)n(C)c(=O)n(C)c2n1 do in these assays?
BJeLR lethal: 6.3; Bead autofluor: 3821; Sa ugtP lethal: -1.3; PrP 5UTR inh: -0.9; Mtb hypoxia inh: 15.1; RN4220 kill: -0.6; Mtb hypoxia inh growth: 5.0

What do the screens show for `Cc1ccccc1NP(=O)(c1ccccc1)c1nc2ccccc2s1` (configuration not stated)?
BJeLR lethal: -3.1; Bead autofluor: 4177; Sa ugtP lethal: 4.6; PrP 5UTR inh: -16.3; Mtb hypoxia inh: 0.8; RN4220 kill: 4.9; Mtb hypoxia inh growth: 16.0

What do the screens show for `Cc1cccc(N2C(=O)CC(Sc3ncn[nH]3)C2=O)c1` (configuration not stated)?
BJeLR lethal: 7.8; Bead autofluor: 3835; Sa ugtP lethal: -4.4; PrP 5UTR inh: -13.9; Mtb hypoxia inh: -6.3; RN4220 kill: -0.7; Mtb hypoxia inh growth: -4.3

What do the screens show for `C=CCNC(=O)c1onc(CSc2nc3ccccc3[nH]2)c1C(=O)NCC=C`?
BJeLR lethal: 9.2; Bead autofluor: 3660; Sa ugtP lethal: 2.0; PrP 5UTR inh: -25.3; Mtb hypoxia inh: -5.4; RN4220 kill: 0.7; Mtb hypoxia inh growth: 7.2

How did CCOc1ccc(CN2C(=O)CCC2(C)C(=O)NCc2cccnc2)cc1 (configuration not stated) do in these assays?
BJeLR lethal: -0.6; Bead autofluor: 5748; Sa ugtP lethal: 2.9; PrP 5UTR inh: -5.8; Mtb hypoxia inh: 4.4; RN4220 kill: 2.2; Mtb hypoxia inh growth: 5.7

Results for O=C(O)c1cccc(S(=O)(=O)Nc2ccc(Oc3ccccc3)cc2)c1 ?
Bead autofluor: 5957; Sa ugtP lethal: 8.2; PrP 5UTR inh: -4.5; Mtb hypoxia inh: -1.9; RN4220 kill: -4.5; Mtb hypoxia inh growth: -0.4

How did CC(C)c1ccc(CNC(=O)CCc2ccccc2)cc1 do in these assays?
BJeLR lethal: -3.1; Bead autofluor: 4365; Sa ugtP lethal: 7.2; PrP 5UTR inh: -106.0; Mtb hypoxia inh: 12.7; RN4220 kill: 1.7; Mtb hypoxia inh growth: 16.4

How did CCN1CCN(S(=O)(=O)c2ccc(C)c([N+](=O)[O-])c2)CC1 do in these assays?
BJeLR lethal: 0.6; Bead autofluor: 2196; Sa ugtP lethal: 12.7; PrP 5UTR inh: -17.8; Mtb hypoxia inh: 10.7; RN4220 kill: 4.7; Mtb hypoxia inh growth: 5.6

What do the screens show for `CCCCCN(C(=O)CCC(=O)OCCOc1cccc(C)c1)c1c(N)n(CCCC)c(=O)[nH]c1=O`?
BJeLR lethal: -12.5; Bead autofluor: 4339; PrP 5UTR inh: -16.6

How did CCOC(=O)c1c(-c2ccc(C)o2)csc1NC(=O)CN1CCN(CC)CC1 do in these assays?
BJeLR lethal: 1.7; Bead autofluor: 10231; Sa ugtP lethal: -3.0; PrP 5UTR inh: -19.4; Mtb hypoxia inh: 19.4; RN4220 kill: -1.8; Mtb hypoxia inh growth: 28.7

Results for COc1ccccc1C(=O)N1CCN=C1SC ?
BJeLR lethal: 2.0; Bead autofluor: 4110; Sa ugtP lethal: -4.4; PrP 5UTR inh: -8.8; RN4220 kill: 0.8

Results for O=C(Nc1ccccc1)OCCc1ccccn1 ?
Bead autofluor: 3962; Sa ugtP lethal: -1.1; PrP 5UTR inh: -49.7; Mtb hypoxia inh: 6.3; RN4220 kill: 2.6; Mtb hypoxia inh growth: 4.3

How did O=C(N/N=C/c1c(O)n(CCc2ccc(F)cc2)c(=O)[nH]c1=O)c1ccccc1 do in these assays?
BJeLR lethal: 6.6; Bead autofluor: 6059; Sa ugtP lethal: -9.3; Mtb hypoxia inh: -3.0; RN4220 kill: 2.1; Mtb hypoxia inh growth: 7.3

How did CCCCN(C(=O)COC(=O)COc1c(C)cc(C)cc1C)c1c(N)n(CCC)c(=O)[nH]c1=O do in these assays?
BJeLR lethal: -6.8; Bead autofluor: 6267; Sa ugtP lethal: 9.3; PrP 5UTR inh: -21.3; Mtb hypoxia inh: 3.3; RN4220 kill: 0.9; Mtb hypoxia inh growth: -3.4

What do the screens show for `Cc1cccc(NC(=O)CCC2CCN(C(=O)C3CC=CCC3)CC2)c1` (configuration not stated)?
BJeLR lethal: -0.2; Bead autofluor: 4511; Sa ugtP lethal: 6.1; PrP 5UTR inh: -14.8; Mtb hypoxia inh: 13.6; RN4220 kill: 0.1; Mtb hypoxia inh growth: 8.9

How did NC(=O)CCC1NC(=O)C(Cc2ccc(O)cc2)NC(=O)c2cc([N+](=O)[O-])cc(F)c2OCCC(C(N)=O)NC1=O (configuration not stated) do in these assays?
Sa ugtP lethal: 1.8; Mtb hypoxia inh: 13.7; RN4220 kill: 8.3; Mtb hypoxia inh growth: 5.9

What do the screens show for `CC1Cn2c(nnc2-c2cccc(Cl)c2)S1` (configuration not stated)?
BJeLR lethal: -8.2; Bead autofluor: 6209; Sa ugtP lethal: 3.7; PrP 5UTR inh: -35.4; RN4220 kill: 1.6

What do the screens show for `CSc1nsc(SCC(=O)N2CCCc3ccccc32)n1`?
BJeLR lethal: -3.9; Bead autofluor: 2527; Sa ugtP lethal: -11.7; PrP 5UTR inh: -17.5; RN4220 kill: -5.3

A section from the list above, for reference:
How did NC(=O)CCC1NC(=O)C(Cc2ccc(O)cc2)NC(=O)c2cc([N+](=O)[O-])cc(F)c2OCCC(C(N)=O)NC1=O (configuration not stated) do in these assays?
Sa ugtP lethal: 1.8; Mtb hypoxia inh: 13.7; RN4220 kill: 8.3; Mtb hypoxia inh growth: 5.9

What do the screens show for `CC1Cn2c(nnc2-c2cccc(Cl)c2)S1` (configuration not stated)?
BJeLR lethal: -8.2; Bead autofluor: 6209; Sa ugtP lethal: 3.7; PrP 5UTR inh: -35.4; RN4220 kill: 1.6

What do the screens show for `CSc1nsc(SCC(=O)N2CCCc3ccccc32)n1`?
BJeLR lethal: -3.9; Bead autofluor: 2527; Sa ugtP lethal: -11.7; PrP 5UTR inh: -17.5; RN4220 kill: -5.3
